# gsp antag – gsp mutant antagonism; gsp-mutant cells, cAMP HTRF, 30 min; control for the full effect not named in the record; Potency, µM (highest dose often 76.9 µM), inactives show top-dose activity change, negative = inhibition, hits mostly inhibitors; actives 0.4% (n = 340,000); AID 624288; active = falling curve of any shape with a large fitted effect; inconclusive = falling curve, mostly with a smaller effect; inactive = flat or rising curve; cell line not stated here;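 note: intracellular cAMP measured with PDE inhibitor Ro 20-1724 present during compound exposure; potency is the fitted concentration of half-maximal effect; % is set by controls: 0 for no effect and ±100 for the full control effect; nearly all actives have a fitted effect of over 65% in size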
#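 Cells in G418 medium, seeded 16-24 h, 37C; buffer exchange to DPBS + 1 mM CaCl2, 0.5 mM MgCl2, 0.05% BSA; cpds in DMSO + […] (300 uM stock), 30 min 37C; HTRF cAMP detection.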
# TRPML1 inh – human mucolipin-1 channel inhibition; Q9GZU1; TRPML1-inducible cells, Ca2+ dye fluorescence, FDSS; hits give low values; inhibition of EC80 agonist-evoked calcium signal; activity change, negative = inhibition, % (test concentration not listed); actives 0.02% (n = 390,000); AID 624415; in the data active means activity change below about -50%; inconclusive means about -30% to -50%; inactive means above about -30%;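 note: stimulus is agonist 54-4 at its EC80 concentration; % is set by controls: 0 for no effect and ±100 for the full control effect; compound concentration not given in the record; the text of the record puts the active cut at -80%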
# Target sequence (Q9GZU1 whole entry, looked up): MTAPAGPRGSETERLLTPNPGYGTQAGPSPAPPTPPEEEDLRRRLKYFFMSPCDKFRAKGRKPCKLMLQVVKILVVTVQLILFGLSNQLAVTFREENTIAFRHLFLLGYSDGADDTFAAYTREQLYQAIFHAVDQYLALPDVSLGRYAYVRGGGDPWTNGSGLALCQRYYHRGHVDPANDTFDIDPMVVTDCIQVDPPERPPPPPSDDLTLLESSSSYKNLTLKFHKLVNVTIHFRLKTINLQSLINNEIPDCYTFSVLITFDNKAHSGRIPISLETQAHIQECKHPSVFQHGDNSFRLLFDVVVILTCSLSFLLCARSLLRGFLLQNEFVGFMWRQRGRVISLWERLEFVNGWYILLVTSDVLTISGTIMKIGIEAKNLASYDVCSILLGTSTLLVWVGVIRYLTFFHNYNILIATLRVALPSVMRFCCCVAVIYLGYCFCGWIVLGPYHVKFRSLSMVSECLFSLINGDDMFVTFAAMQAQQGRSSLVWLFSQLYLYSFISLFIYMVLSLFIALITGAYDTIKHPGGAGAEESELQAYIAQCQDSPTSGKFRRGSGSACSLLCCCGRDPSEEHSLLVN
#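 Calcium fluorescence in TRPML1-DL cells induced overnight with Tet: a 110 s read after compound pin addition, then a 110 s antagonist read after challenge with 54-4 at 4 uM final (EC80).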
# TRPV1 PAM – human TRPV1 potentiation; Q8NER1; TRPV1-expressing cells, Fluo-8 calcium influx, capsaicin EC20 potentiation; host cell line not named in the record; control for the full effect not named in the record; potentiation, % at 8.33 µM; actives 0.02% (n = 320,000); AID 540277; active means potentiation above 80%; inconclusive means 30% to 80%; inactive means below 30%; note: 0% is about no effect
#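 Fluo-8 calcium influx in TRPV1-expressing cells, kinetic read (ex 480/em 520 nm). Compound added and read 3 min for agonist activity, followed by capsaicin at EC20 final and 2 min further read for enhancement.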
# ClpP mod – qHTS Assay for Activators of ClpP | ATP-dependent Clp protease proteolytic subunit (Bacillus subtilis (strain 168)), P80244 | purified B. subtilis ClpP, FRET peptide cleavage, 20 min | Potency, µM (highest dose often 57.5 µM), for inactives: at the top dose activity change, negative = active | actives 1.9% (n = 340,000) | AID 651965, 2013; active = well fitted falling curve with a large enough effect; inconclusive = small, poorly fitted or top-dose-only effect; inactive = no such curve, though single readings can be large or run the other way; note: potency is the fitted concentration of half-maximal effect; the source files actives as falling curves though it sought activators and does not explain the sign; nearly all actives have a fitted effect of over 65% in size; many hits overshoot -100%
# Target sequence (P80244 whole entry, looked up): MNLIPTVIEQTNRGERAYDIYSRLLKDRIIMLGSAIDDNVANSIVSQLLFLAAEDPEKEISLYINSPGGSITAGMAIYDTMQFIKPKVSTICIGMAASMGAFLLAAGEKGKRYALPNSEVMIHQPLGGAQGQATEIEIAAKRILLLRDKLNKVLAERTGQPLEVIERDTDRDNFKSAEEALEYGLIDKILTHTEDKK
#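 Buffer: 100 mM Tris/HCl pH8, 100 mM KCl, 0.05% low protease BSA, 2.5% glycerol, 0.01% Tween-20. ClpP 10 microg/mL final; 20 min RT; delta FRET normalized to ADEP and DMSO controls.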
# Menin-MLL FL inh – menin-MLL binding inhibition, fluorescein peptide | Fluorescence polarization, fluorescein-MLL peptide displacement from menin | FP activity change, % at 61.4 µM | 290,000 tested, under 10 active; inconclusive = falling polarisation curve, or a change in total fluorescence; inactive = total fluorescence flat and polarisation flat or rising; no compound was filed as active; the % refers to the polarisation; negative = inhibition;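 note: % of control where 0% means no effect; inhibitors lower the polarisation; unlabelled MLL peptide was the positive control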
# gsp agonist – agonists of gsp mutant (McCune-Albright syndrome) | gsp mutant cells, cAMP HTRF, 30 min; control for the full effect not named in the record | AID 624287 | actives 0.13% (n = 340,000) | Potency, µM (highest dose often 76.9 µM), without a hit: top-dose activation (cAMP increase), usual class: activators; active = well fitted activation curve with a large enough effect; inconclusive = small, poorly fitted or top-dose-only effect, or another doubt; inactive = no such curve, though single readings can be large or run the other way; cell line not stated here;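 note: phosphodiesterase inhibitor Ro 20-1724 added with compounds to block cAMP breakdown; potency is the fitted concentration of half-maximal effect; nearly all actives have a fitted effect of over 60% in size; about a fifth of the inactives were tested at one dose only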
#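 Cells in DMEM/10% FBS with G418 were pretreated with compounds in DMSO plus […] (300 uM stock) for 30 min at 37C. cAMP was measured by HTRF (cAMP-d2 plus anti-cAMP antibody-K) after 30 min at room temperature.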
# Sfp inh – Sfp phosphopantetheinyl transferase inhibition. Q9F4F7. Biochemical Sfp PPTase activity, qHTS. Potency, µM, inactives show max response, negative = inhibition, hits mostly inhibitors. actives 3.5% (n = 310,000). AID 1490; active = well fitted inhibition curve with a large enough effect; inconclusive = small, poorly fitted or top-dose-only effect, or another doubt; inactive = no such curve, though single readings can be large or run the other way;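 note: the enzyme is Sfp with the accession as filed and its product quenches rhodamine fluorescence; potency is the fitted concentration of half-maximal effect; 0% = enzyme reaction without inhibitor and -100% = no enzyme wells; top concentration of the series not given in the record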
#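 After 15 min at room temperature with compound, 15 nM Sfp received 5 uM rhodamine-CoA plus 12.5 uM BHQ-2-ybbR (50 mM Hepes pH 7.6, 10 mM MgCl2). Rate came from the fluorescence difference over 30 min, ex 525/em 598 nm.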
# The depositor's hits bear a star; ? = inconclusive; nt = no result given; & = joins results of further samples; [ ] = another dose, or the depositor's remark.
SMILES,gsp antag,TRPML1 inh,TRPV1 PAM,ClpP mod,Menin-MLL FL inh,gsp agonist,Sfp inh
COc1ccccc1CNC(=O)C1CCCN(S(=O)(=O)c2cccc3nonc23)C1 (configuration not stated),-4%,14,5,-1.0%,-1.4,1%,5%
COc1cc2c(cc1OC)CN(C(=O)CCNC(=O)c1ccccc1Cl)CC2,-3%,19,nt,-5.0%,nt,25%,nt
CCOC(=O)C1=C(C)S/C(=C\N(C)C)C1=O,-1%,-13,-2,?,5.7,22%,?
CCOc1ccc(N2C(=O)CC(NNc3nc4ccccc4s3)C2=O)cc1 (configuration not stated),-1%,-11,-5,-3.1%,-1.0,10%[15.4 µM],21%
CCOc1cc(/C=C/C(=O)N(CC)CC(=O)NCc2cccs2)cc(Cl)c1OC,-21%,-18,-36,nt,nt,-2%[15.4 µM],nt
CCOC(=O)c1sc(=NC(=O)COc2ccccc2)n(C)c1C,5%,19,2,-0.5%,-0.3,2%[15.4 µM],9%
CCN(CC)CCn1c2c(c(SCC(=O)Nc3ccc4c(c3)OCCO4)nc1=O)CCCC2,13%,1,-3,1.9%,nt,-2%[15.4 µM],nt
CCOC(=O)C1CCCN(C(=O)c2ccc(NS(=O)(=O)c3ccc4[nH]c(=O)[nH]c4c3)cc2)C1 (configuration not stated),8%,-22,-9,nt,nt,-13%[15.4 µM],nt
Cc1nn(CC(=O)Nc2ccc3c(c2)OCO3)c(C)c1Cl,7%,0,?,0.0%,nt,5%,-1%
Cc1ccc(CCNC(=O)C2CCC(=O)N(Cc3ccccc3F)C2)o1 (configuration not stated),2%,5,-14,-4.8%,nt,2%[15.4 µM],-21%
CCOC(=O)N1CCN(C(=O)CN(C2CCCCC2)S(=O)(=O)c2c(C)cc(C)cc2C)CC1,-19%,-6,-6,0.8%,-3.5,-53%[inhibitor],-14%
O=C(NCCCl)C1Cc2c(ccc3ccccc23)O1 (configuration not stated),8%,17,-3,-2.2%,6.9,0%[15.4 µM],10%
Cc1[nH]c(C)c(S(=O)(=O)N2CCN(c3cccc(C(F)(F)F)c3)CC2)c1C(=O)N1CCCC1,-9%,15,16,-3.3%,nt,-2%,3%
Cc1nc(N2CCOCC2)nc(N2CCCCC2C)c1[N+](=O)[O-] (configuration not stated),3%,-17,6,2.8%,-2.2,-3%,?
Cn1c(N)c(C(=O)COC(=O)CC2CC3CCC2C3)c(=O)n(C)c1=O (configuration not stated),4%,-23,-12,-4.8%,0.2,16%[15.4 µM],3%
CC1(c2nnc(Cc3ccccc3)o2)CC(c2ccc(Cl)cc2)=NO1 (configuration not stated),6%,-17,nt,-3.1%,nt,-2%,nt
O=C1COc2ccc(C(=O)CSc3nc4ccccc4c(=O)n3-c3ccc(Cl)c(Cl)c3)cc2N1,nt,5,5,nt,8.4,16%[15.4 µM],-17%
Cc1ccc(S(=O)(=O)CC(N)=O)cc1,8%,5,1,-1.3%,2.8,-20%,7%
CC(NC(=O)c1ccc(OC2CCN(S(=O)(=O)N(C)C)CC2)cc1)C1CC1 (configuration not stated),8%,24,0,0.9%,-3.3,1%[15.4 µM],4%
CCCN1Cc2cccc(C(=O)NC(CC(=O)OCC)c3ccc(C)cc3)c2C1=O (configuration not stated),7%,14,-5,nt,-0.8,3%,7%
COC(=O)/C(NC(C)=O)=C(\C)c1ccc(Cl)cc1,9%,12,-7,1.2%,-0.3,-4%,8%
COC(=O)c1cc(O)c(O)c(O)c1,9%,2,13,1.3%,2.3,-12%,?
Cc1ccc2nc(N3CCOCC3)c(C=O)cc2c1,4%,-7,1,-3.0%,1.0,11%,7%
O=C(CN1CCOCC1)Nc1nc2ccc(Cl)cc2s1,1%,nt,-12,0.3%,1.3,-3%,9%

# Copied from the list.
# TRPV1 PAM, `Cc1[nH]c(C)c(S(=O)(=O)N2CCN(c3cccc(C(F)(F)F)c3)CC2)c1C(=O)N1CCCC1` → 16
# gsp agonist, `COC(=O)c1cc(O)c(O)c(O)c1` → -12%

# New compounds follow:
SMILES,gsp antag,TRPML1 inh,TRPV1 PAM,ClpP mod,Menin-MLL FL inh,gsp agonist,Sfp inh
COc1ccc(CNS(=O)(=O)c2cc(Br)cc3c2N(C(C)=O)C(C)C3)cc1 (configuration not stated),0%,-22&-3,13,0.3%&1.0%,1.0,-4%[15.4 µM],7%
CCNc1cc(N2CCCC2)ccc1[N+](=O)[O-],-1%,2,-11,-1.8%,-0.3,5%,-5%
Cc1ccc(NC(=O)Cn2ccc([N+](=O)[O-])n2)cc1C,12%,-6,-4,nt,-1.3,0%[15.4 µM],22%
CCCn1c2ccc(F)cc2c2nnc(SCCN(CC)CC)nc21,nt,12,-7,-2.8%,nt,nt,nt
COc1ccc(C(=O)CNc2ccccc2CO)cc1,nt,-14,-7,nt,0.2,17%[15.4 µM],2%
CNc1ccc(C(=O)Oc2cc(O/N=[N+](\[O-])N(C)C)c([N+](=O)[O-])cc2[N+](=O)[O-])cc1,nt,7,nt,nt,-1.2,nt,?
COc1ccc(-c2nc(CS(=O)CC(=O)NC3CCCc4ccccc43)c(C)o2)cc1OC (configuration not stated),-5%,5,27,3.7%,0.3,-25%,7%
Cc1cc(C)c(C#N)c(N2CCN(c3ccccc3F)CC2)n1,-4%,15,0,-29%,-15,-9%,3%
S=c1ccc2ccccc2[nH]1,5%,-2,-10,-1.1%,-0.2,3%,-21%
O=C(NN=Cc1ccc2c(c1)OCO2)C1CC1,10%,24,nt,nt,nt,31%,nt
Cn1cnnc1SCc1ccc(C(=O)N=Nc2c(O)n(Cc3ccc(Cl)cc3)c3ccccc23)cc1,-18%,3,8,-0.1%,4.4,-6%,?
N#C/C(=C/c1ccc(N2CCCCCC2)o1)c1cccc(F)c1,10%,-9,6,-1.9%,?,-22%,0.56µM*
COc1ccc(C(=O)c2cc([N+](=O)[O-])ccc2N2CCOCC2)cc1,32%,11,-9,0.6%,6.2,-10%,14%
C=C(C)Cn1c(SCC(=O)NCc2ccco2)nc2sc3c(c2c1=O)CCC3,-16%,-10,-6,4.6%,-1.5,-1%,-2%
COc1cc(NC(C)CCCN)c2nc(C)ccc2c1Oc1ccc(F)cc1 (configuration not stated),nt,-14,nt,-3.7%,nt,22%,nt
COc1ccc2c(c1)CCC/C2=N\Nc1nc(C(=O)NN)cs1,0%,-4,0,nt,-4.0,-10%[15.4 µM],1%
Cc1c(N(C(=O)c2ccccn2)C2(C(=O)NC3CCCCC3)CCCCC2)c(=O)n(-c2ccccc2)n1C,-11%,15,4,nt,-0.5,3%[15.4 µM],9%
Cc1ccc(NC(=O)C2Cc3ccccc3O/C2=N\O)cc1C (configuration not stated),6%,-15,0,nt,1.1,3%[15.4 µM],19%
CN1CCN(S(=O)(=O)c2ccc(NC(=O)c3ccc([N+](=O)[O-])cc3)cc2)CC1,5%,-11,nt,nt,nt,-39%,nt
CCOC(=O)/C(C#N)=C/C1=C(N2CCOCC2)C(C)(C)OCC1,-5%,-3,?,-14%,3.0,-5%[15.4 µM],13%
Cc1ccc(S(=O)(=O)NC2CCCCC2)c(C)c1NS(C)(=O)=O,6%,-27,3,nt,-3.0,13%,19%
COc1ccc(CCNC(=O)c2c(C)nc3ccccn23)cc1,12%,-13,-4,1.9%,0.4,1%[15.4 µM],18%
Cc1cccc(/C=N/NC(=O)c2ccc(NC(=O)c3ccc(F)cc3)cc2)n1,-5%,0,6,nt,4.0,5%,20%
CC(CCc1ccccc1)NC(=S)NC(=O)c1ccco1 (configuration not stated),2%,20,-20,-1.3%,3.3,1%[15.4 µM],-19%
Cc1ccc(S(=O)(=O)N2CCN(c3ncnc4sccc34)CC2)cc1C,?,11,20,1.2%,nt,-4%[15.4 µM],nt
COc1ccc(C(=O)OCC[N+]2(C)CCCCC2)cc1,20%,23,-2,nt,0.6,-5%[15.4 µM],5%
CCCCNS(=O)(=O)c1ccc2nc(-c3cccnc3)cc(C(=O)NCCCOC)c2c1,-7%,-1,-1,nt,4.1,7%[15.4 µM],20%
Cc1cccc2cc(CN(C(=S)NCC(C)C)C3CCCC3)c(=O)[nH]c12,-19%,-10,-15,-5.1%,4.1,-2%,0%
Clc1ccc(C[n+]2cc(-c3ccccc3)n3c2CCC3)cc1,12%,?,0,1.3%,0.7,-33%[15.4 µM],5%
C[C@H](NC(=O)c1ncn2c1C(=O)N(C)CC2)C(=O)OC(C)(C)C,nt,-2,nt,-1.8%,nt,18%,nt
COCCn1nnnc1C(c1cc2cc(C)ccc2[nH]c1=O)N1CCCCCC1 (configuration not stated),6%,2,1,28µM*,3.7,-12%,50µM*
CCC1=NN(C(=O)Cc2ccc([N+](=O)[O-])cc2)C(O)(c2ccc(Br)cc2)C1 (configuration not stated),-1%,6,-9,1.0%,-2.7,-9%,?
O=C(NCCCN1CCN(c2ccc(F)cc2)CC1)Nc1ccc([N+](=O)[O-])cc1,0%,nt,-9,0.8%,-0.7,11%,23%
Cc1cccc(Cn2ccc(-c3ccc(Cl)cc3)c(C#N)c2=O)c1,1%,7,-42,?,1.2,16%,10%
COc1ccc(N2C(=O)C3CCCN3C2c2ccc(Cl)cc2)cc1 (configuration not stated),7%,14,26,-1.1%,1.1,-20%,14%
CCOc1cccc(/C=N/NC(=O)c2ccc3c(c2)OCCO3)c1O,-9%,7,-29,nt,nt,-29%[15.4 µM],13%
Cc1ccc(SC(=O)c2c(C)noc2-c2cc(C)on2)cc1,-2%,-9,0,nt,1.1,15%,-17%
Cc1ccnc(NC(=O)c2ccoc2C)c1,15%,7,-3,0.7%,-10,-6%[15.4 µM],19%
COc1ccc2c(c1)CCc1cn[nH]c1-2,-9%,-19,?,-3.2%,-5.2,-9%,-5%
Cc1ccc[n+](CC(=O)Nc2cccc(Cl)c2)c1,10%,6,7,nt,4.2,-42%[inhibitor],8%
NS(=O)(=O)c1ccc(CCn2c(=S)[nH]c3ccc(F)cc3c2=O)cc1,-10%,11,-2,-0.7%,-2.0,?,7%
O=C(O)[C@@H]1CSC2c3ccccc3C(=O)N21 (some centres not stated),2%,-14,-19,-0.2%,-3.4,-36%,-17%

# Assay outcomes deposited in PubChem by National Center for Advancing Translational Sciences (NCATS).
